# Ba CapD inh: CapD enzyme inhibition. purified CapD enzyme, fluorescence intensity read-out; stronger effect = lower value; some hits fall short of the stated cut. z-score (concentration not given with the values). 140,000 tested, 0.23% active. AID 492967;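 active = z-score under -4 in either of two replicates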;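 also: stock transfer was 100 nL into about 40 µL; score is relative to mean and spread of the plate; one replicate is shown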
# AID504770: E. coli YBA685 growth inhibition, screen for V. cholerae RctB inhibitors; E. coli YBA685 rctB-dependent plasmid, OD600 growth, 3 h; stronger effect = lower value; z-score (test concentration not listed); 130,000 tested, 0.27% active; AID 504770;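 active = z-score under -2 on both plates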;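 also: wells of about 30 µL received 100 nL stock; score is relative to mean and SD of the test wells; the first replicate is given; strong numbers were not always called active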
# An asterisk follows results filed as active; i = inactive; / = not tested or not shown. The list is partial; the hit share may differ from the screen's.
SMILES,Ba CapD inh,AID504770
CC(CCOC(=O)NC1CCCC1OCc1ccccc1)c1ccccc1 (centres undefined),-0.11,/
COC(=O)c1cc(CNCC2(N3CCCCC3)CCCCC2)oc1C,/,0.75
CCN(C(=O)CSc1nc(C)cc(COC)c1C#N)c1ccccc1,0.6,-0.95
Clc1ccc(OCc2ccccc2)c(Cl)c1,-0.13,-0.45
CCOc1ccc(N2C(=O)/C(=C\c3sccc3C)S(=O)(=O)C2c2cccc([N+](=O)[O-])c2)cc1 (centres undefined),-0.89,/
COc1ccc(CNC(=O)CSC(C)(C)C)cc1OC,/,-4.6*
FC(F)(F)Oc1ccccc1NCn1nnc2ccccc21,0.14,-1.4
CN(CC(=O)N1CCCCC1)S(=O)(=O)c1cnc[nH]1,-0.8,-0.75
O=C(CCCCn1c(=O)[nH]c2ccsc2c1=O)N1CCN(Cc2ccc3c(c2)OCO3)CC1,-0.53,1
COc1ccc(CN2C(=O)CC(C(=O)Nc3ccc(OC)cc3)SC2=Nc2ccccc2)cc1 (centres undefined),0.26,/
O/N=C/c1ccc(N2CCOCC2)cc1,12,-0.7
O=C(Cc1cccs1)Nc1nc2ccccc2s1,-0.34,1.9
CCc1ccccc1Nc1n[nH]c(=S)s1,-0.47,/
COc1ccc(NC(=O)CSc2nccn2-c2ccc(F)cc2)c(OC)c1,-0.52,-0.8
CC1=CC(C)C2C(=O)N(c3ccc[n+](C)c3)C(=O)C2C1 (centres undefined),-0.24,0.85
COC(=O)C1=C(C)OC(N)=C(C#N)C1c1c(C)nn(-c2ccccc2)c1Cl (centres undefined),/,-0.8
COc1ccc(C2=CSC3=NS(=O)(=O)CCN23)cc1OC,/,-1.1
Oc1ccc(CN2CCN(c3ccccc3)CC2)c2cccnc12,0.21,2.3
NC(=O)c1cnn(-c2ccc(C(F)(F)F)cn2)c1N,0.72,-0.2
Clc1ccc(-c2nnc3n2-c2ccccc2SC3)cc1,-0.68,-1.1
Cc1ccn(CCC(=O)N(C)Cc2ccco2)n1,-1,-0.75
CCC(C)c1ccccc1OCC(O)CNC(C)C (centres undefined),0.005,-0.6
CC1(C)CCCC2=C1CC1C(=O)N(O)C(=O)C1C2 (centres undefined),/,-0.4
CC(C(=O)OCC(=O)c1ccc2c(c1)OCCO2)N1C(=O)c2ccccc2C1=O (centres undefined),/,1.6
CC(C)(C)NC(=O)c1cn2c(n1)sc1ccccc12,-0.21,/
Cn1c(-c2ccccc2)c(C(=O)CN2CCOCC2)c2ccccc21,/,0.05
Cn1c(=O)c2c(ncn2CCCN)n(C)c1=O,-0.43,-0.4
N#Cc1cc(Br)cc(Br)c1,0.19,/
CCOC(=O)c1[nH]c(=O)[nH]c1COC(=O)CNC(=O)c1ccccc1,-6.1*,-0.3
COC(=O)c1sc(C(C)(C)C)cc1NC(=O)Nc1ccc(Cl)cc1,3,0.9
CCN(C(=O)CSc1nnc(C(F)(F)F)n1C)C1=CCCC1,/,0.15
COc1ccc(C2CC(=O)CC(=O)C2c2ncc(C(F)(F)F)cc2Cl)cc1 (centres undefined),-0.74,/
CCSC1=C(C#N)C(=O)NCS1,0.29,-0.1
COC(=O)C1=C(C)NC2=C(C(=O)CCC2)C1c1ccc2c(c1)OCC2 (centres undefined),15,-0.95
CCCCc1ccc(/C=N/NC(=O)c2cccc(OC)c2)cc1,-0.11,/
O=C1CSC(c2ccc(Cl)cc2)C(=O)N1c1ccc(Br)cc1 (centres undefined),-0.52,/
CCOc1ccc2ccc(=O)oc2c1,/,2.3
CCNC(=O)OCc1cc2cccc3c2n(c1=O)CCC3,8.4,/
O=C(CNS(=O)(=O)c1ccc(F)cc1F)Nc1ccc([N+](=O)[O-])cc1,-0.84,/
Cc1ccc(CCOC(=O)N2CCC(NC(=O)OC(C)(C)C)C2)cc1 (centres undefined),0.14,/
Cn1c(SCc2cccc(F)c2)nc(-c2ccccc2)c1-c1ccccc1,0.41,/
c1cc(-c2csnn2)ccc1-c1csnn1,-0.1,1.1
O=C(O)Cc1c(-c2ccc(Cl)cc2)nc2ccccc2c1C(=O)O,0.74,-0.6
CC(C)n1cnc2cc(S(C)(=O)=O)ccc21,0.085,/
NC(=O)C1CCN(C(=O)c2ccc(F)cc2F)CC1,0.07,0.2
CCn1c(=S)[nH]c2sc3c(c2c1=O)CCN(C)C3,74,/
Cc1onc(-c2ccccc2Cl)c1C(=O)NCC(=O)O,0.46,/
COC(=O)c1c[nH]n2c(=O)c3c(nc12)CCC3,-0.12,-1
CSCCC(N)c1nc2ccccc2[nH]1 (centres undefined),/,0.55
O=C1/C(=N\O)CCc2c1no[n+]2[O-],/,-1.8
COc1c(O)cccc1-c1nnn(CCC(=O)OCC(=O)c2ccccc2)n1,/,-0.35
CS(=O)(=O)c1ccc(NS(=O)(=O)c2ccc3oc(=O)ccc3c2)cc1,-0.33,/
O=C1N[C@H](C(=O)O)C1Cc1ccccc1 (some centres undefined),0.62,-0.2
Cc1ccc(S(=O)(=O)N2CCC[C@H]2C(=O)OCc2c(C)noc2C)cc1,/,-0.35
Cc1cccc(CSc2nc(-c3cccc(C)c3)c3c(c2C#N)CCCC3)c1,0.68,/
Cc1cc2c(c(SCC(=O)c3ccccc3)n1)C(=O)OC2,-0.7,-0.75
Cc1ccc(-c2nc3cnccn3c2Nc2ccc3c(c2)OCO3)o1,-1.5,1.9
CCS(=O)(=O)N1CCCC(c2nc3c(nnn3Cc3ccc(C)cc3)c(=O)[nH]2)C1 (centres undefined),/,0.9
COc1ccc(Cl)cc1NC(=O)COC(=O)C12CC3CC(CC(O)(C3)C1)C2,/,2
CN1/C(=C\C(=O)CN2C(=O)NC3(CCc4ccccc43)C2=O)C(C)(C)c2ccccc21 (centres undefined),/,-0.2
# Further entries.
SMILES,Ba CapD inh,AID504770
O=C(Cn1nc(-c2ccc(Cl)cc2)c2ccccc2c1=O)NCCN1CCOCC1,/,0.4
COc1cc2c(cc1OC)C(C)=NC(C)(C)C2,97,/
CC(C)N1CCN(S(=O)(=O)c2cc(Br)c(Cl)s2)CC1,0.69,/
Cc1ccc(CNC2=NCCS2)cc1,-0.47,2
Cc1ccc(S(=O)(=O)N(C2CCCC2)S(=O)(=O)c2ccc(Br)s2)cc1C,/,0.2
Cc1cc(C)c(S(=O)(=O)Nc2cc3c4c(oc3c3ccccc23)CCCC4=O)cc1C,-0.23,-0.7
COc1ccc(C(=O)N2C(=O)c3ccc(N)cc3C2=O)cc1,/,-0.75
CC(C)NC(=O)c1cc(-c2ccc(Br)cc2)on1,-0.7,-0.05
O=C(Nc1ccc(C(F)(F)F)cc1Cl)c1ccc(Cn2cc(Br)cn2)o1,0.03,0.4
Cc1cc(C)c(C)c(S(=O)(=O)NCCCN2CCCCC2C)c1C (centres undefined),0.69,/
COc1ccc(NC(=O)CCn2cc(C)c3ccccc32)cc1,1.6,0.85
Cn1c(CSCc2ccccc2)c(C#N)c2ccccc21,0.12,-0.9
Cc1cccc(NC(=O)CNc2nnnn2-c2ccccc2)c1C,/,2
Cc1ccc(NC(=O)COc2ccccc2)cc1,0.39,0.25
Cc1cc(C)nc(SCC(=O)NC2=NN=C(c3ccccc3)CS2)n1,-0.7,-0.05

# In another format: results already given
# Fields – Ba CapD inh | AID504770
COc1ccc(C(=O)N2C(=O)c3ccc(N)cc3C2=O)cc1
    / | -0.75
CC(C)NC(=O)c1cc(-c2ccc(Br)cc2)on1
    -0.7 | -0.05
O=C(Nc1ccc(C(F)(F)F)cc1Cl)c1ccc(Cn2cc(Br)cn2)o1
    0.03 | 0.4

# Back to the main list; the 3 compounds before the break are reprinted first.
SMILES,Ba CapD inh,AID504770
Cc1cccc(NC(=O)CNc2nnnn2-c2ccccc2)c1C,/,2
Cc1ccc(NC(=O)COc2ccccc2)cc1,0.39,0.25
Cc1cc(C)nc(SCC(=O)NC2=NN=C(c3ccccc3)CS2)n1,-0.7,-0.05
O=C(NCc1ccc(Cl)cc1)c1sc2ccccc2c1Cl,17,-0.1
O=C(c1cc(-c2ccc(Br)cc2)on1)N1CCCCC1,-0.41,-0.15
N#CC1=C(N)Oc2n[nH]c(-c3ccc(Br)cc3)c2C1c1ccccc1OC(=O)N1CCOCC1 (centres undefined),-0.71,/
O=C(CCC(=O)CCN1C(=O)c2ccccc2C1=O)CCN1C(=O)c2ccccc2C1=O,0.35,/
O=C(CNC(=O)c1ccccc1)N=Nc1c(O)[nH]c2ccccc12,-0.48,0.25
Cc1ccc(-n2c(=O)c3c4c(sc3n3c(SCC(=O)c5ccccc5)nnc23)COC(C)(C)C4)cc1,-0.78,/
CC(=O)N[C@H]1[C@H](Oc2cccc3ccccc23)O[C@H](CO)[C@@H](O)[C@@H]1O,-0.17,/
C=CCc1ccc(OCCCCCN2CCOCC2)c(OC)c1,0.27,-0.5
Cc1nc2cccnc2n1CCNC(=O)Nc1cccc2ccccc12,/,0.9
S=c1oc(-c2ccccc2)nn1CNc1ccccc1Br,3.9,-0.75
CC(C)(C)c1ccc(C(=O)NCCCn2ccnc2)cc1,0.41,-0.55
Cc1ccccc1NC(=O)Cc1ccccc1,0.05,-0.5
CCN1C(=O)N(COC(C)=O)C2C1N(CC)C(=O)N2COC(C)=O (centres undefined),/,-0.6
N#Cc1ccccc1Cn1c(=O)n(-c2ccc(CC(=O)NCc3ccco3)cc2)c(=O)c2sccc21,0.18,0.5
O=C(CSc1nncs1)N1CCN(C(=O)CSc2nncs2)CC1,/,-0.7

# Two entries from above, as tab-separated lines:
compound	Ba CapD inh	AID504770
N#Cc1ccccc1Cn1c(=O)n(-c2ccc(CC(=O)NCc3ccco3)cc2)c(=O)c2sccc21	0.18	0.5
CC1(C)CCCC2=C1CC1C(=O)N(O)C(=O)C1C2 (centres undefined)	/	-0.4

# Next compounds.
SMILES,Ba CapD inh,AID504770
CC(=O)c1cnc2cc(-c3ccc(Cl)cc3)nn2c1C,0.92,/
CC1=C(c2ccccc2)C(=O)NC1,-0.1,/
FC(F)(F)c1ccn(-c2nc(-c3ccccc3)ns2)n1,-0.21,0.55
Cc1ccc(C)n1NC(=O)c1ccc(O)cc1,/,-0.05
Cc1ccc(SC(C)C(=O)Nc2ccc(CC#N)cc2)cc1 (centres undefined),-0.97,-1.2
CN(C)c1ccc(C(=O)OCC(=O)c2cccs2)cc1,-0.025,0.3
CS/C(Nc1ccc(C)c(F)c1)=C(\C#N)c1ccccn1,0.64,-0.25
O=C(CCc1nc2cccnc2n1Cc1ccccc1)NCCCc1ccccc1,0.32,-0.05
COc1ccc(C2CC(c3cccs3)=NN2C(=O)c2ccc(Br)o2)cc1 (centres undefined),0.14,/
O=C(CSc1nc2c(c(C(F)(F)F)n1)CCCC2)Nc1ccccc1,-0.42,1.2
CCOc1ccc(NC(=S)NC2CC3C=CC2C3)cc1 (centres undefined),-0.17,/
CC(C)(C)n1nnnc1CN1CCC(NC(=O)Nc2ccc(F)cc2)CC1,/,1.6
CC(=O)N[C@H]1[C@H](Oc2ccccc2C(=O)NCc2ccccc2)O[C@H](COC(C)=O)[C@@H](OC(C)=O)[C@@H]1OC(C)=O,0.23,/
Cc1cc(=O)oc2c1ccc1oc(/C(=N/O)c3ccccc3)c(C)c12,-0.89,-1.3
Cc1ccc(C)n1-c1ccsc1-c1cc2ncc(C#N)c(C(F)(F)F)n2n1,-1,/
Cc1cc(=O)[nH]c(NNC(=S)Nc2ccc(Cl)c(F)c2)n1,/,-0.1
O=C(Nc1ccc(F)cc1)c1cccnc1SCCC(F)=C(F)F,-0.3,/
CNC(=O)N1c2ccccc2CCc2ccccc21,-0.46,/
Cc1c(Cl)cccc1NC(=O)CSC1=C(C#N)C(c2ccc([N+](=O)[O-])cc2)CC(=O)N1 (centres undefined),-0.26,/
N#Cc1cccc2cccc(Sc3ccccc3)c12,0.84,-0.35
CCOC(=O)CC(=O)CSc1nc2sc(C(=O)OCC)c(C)c2c(=O)n1Cc1ccc2c(c1)OCO2,4.8,/
Cc1cc(/C=N/N2CCN(C)CC2)c(C)n1-c1ccc(Cl)cc1,/,-0.05
CCOC(=O)N1CCN(C(C)=C2C(=O)c3ccccc3C2=O)CC1,-0.17,0.3
Cc1ccc2c(c1)CCCN2C(=O)c1cc(C(F)(F)F)cc(C(F)(F)F)c1,0.15,-0.65
CCCCCCCc1ccc(C(=O)Nc2ccc(Sc3nc(C)cc(C)n3)cc2)cc1,-0.84,/
O=S(=O)(Cc1ccc(Cl)cc1)N1CCc2ccccc21,1.2,-0.1
CNC(=O)NC(=O)C(C)Sc1nc2ccccc2n1C1CCCCC1 (centres undefined),/,-0.15
COc1ccc(Cn2c(SCc3cccc(C(F)(F)F)c3)nc3ncccc3c2=O)cc1,0.085,1.6
COc1ccc(S(=O)(=O)N2CCc3ccccc32)cc1C(=O)NCC(c1ccco1)N1CCCC1 (centres undefined),/,-1.1
COc1cc2ccccc2cc1C(=O)NC(C)Cc1ccccc1 (centres undefined),43,-0.3

# 4 entries from above, bar-delimited.
compound | Ba CapD inh | AID504770
O=S(=O)(Cc1ccc(Cl)cc1)N1CCc2ccccc21 | 1.2 | -0.1
Cc1cc(/C=N/N2CCN(C)CC2)c(C)n1-c1ccc(Cl)cc1 | / | -0.05
CCOC(=O)N1CCN(C(C)=C2C(=O)c3ccccc3C2=O)CC1 | -0.17 | 0.3
COc1cc2ccccc2cc1C(=O)NC(C)Cc1ccccc1 (centres undefined) | 43 | -0.3

# Additional compounds follow.
SMILES,Ba CapD inh,AID504770
CCOC(=O)c1sc(NC(=O)C2CC2)nc1-c1ccccc1,i,-0.75
O=c1oc2c(CN3CCCCCC3)c(O)ccc2cc1-c1nc2ccccc2s1,-0.39,/
O=C(Nc1ccccc1)c1cc2sccc2nc1C(F)(F)F,-0.075,/
O=C(O)COc1ccc(CO)cc1Cl,3.2,-1.2
Cc1noc2nc(-c3ccc(Cl)cc3)cc(C(=O)O)c12,/,-0.3
O=C(C1=C(N2CCCCC2)c2ccccc2S(=O)(=O)N1)c1ccccc1,/,-0.25
CC(=O)Nc1ccc(OCC(O)CN2CCCC2)cc1 (centres undefined),0.43,0.45
COc1nc2c(c(=O)n(C)c(=O)n2C)n1Cc1ccccc1Cl,-0.11,-0.4
